Compound activity: PubChem BioAssay, National Center for Advancing Translational Sciences (NCATS)
TRPML1 inh – human mucolipin-1 channel inhibition; 0.02% of 390,000 active; TRPML1-inducible cells, Ca2+ dye fluorescence, FDSS; stronger effect = lower value; inhibition of EC80 agonist-evoked calcium signal; activity change, negative = inhibition, % (test concentration not listed); Q9GZU1; in the data active means activity change below about -50%; inconclusive means about -30% to -50%; inactive means above about -30%;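 further: stimulus is agonist 54-4 at its EC80 concentration; on the % scale 0 is the no-effect control and ±100 the full control effect; compound concentration not given in the record; the text of the record puts the active cut at -80%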
Target sequence (Q9GZU1 whole entry, looked up): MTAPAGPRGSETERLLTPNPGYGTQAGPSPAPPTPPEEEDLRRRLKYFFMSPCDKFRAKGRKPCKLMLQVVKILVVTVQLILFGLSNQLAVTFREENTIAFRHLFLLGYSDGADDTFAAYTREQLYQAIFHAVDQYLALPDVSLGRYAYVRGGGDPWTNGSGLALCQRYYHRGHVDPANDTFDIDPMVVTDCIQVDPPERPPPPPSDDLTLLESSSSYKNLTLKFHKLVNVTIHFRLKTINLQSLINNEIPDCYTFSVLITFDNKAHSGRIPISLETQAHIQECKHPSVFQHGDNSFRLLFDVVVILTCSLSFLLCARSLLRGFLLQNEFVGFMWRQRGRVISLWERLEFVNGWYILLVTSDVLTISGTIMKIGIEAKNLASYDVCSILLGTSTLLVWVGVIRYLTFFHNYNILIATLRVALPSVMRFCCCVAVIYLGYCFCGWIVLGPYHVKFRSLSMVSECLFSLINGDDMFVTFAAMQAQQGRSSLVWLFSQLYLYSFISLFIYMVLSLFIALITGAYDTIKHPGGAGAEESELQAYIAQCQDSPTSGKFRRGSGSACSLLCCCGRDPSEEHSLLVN
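Calcium fluorescence in TRPML1-DL cells induced overnight with Tet: a 110 s read after compound pin addition, then a 110 s antagonist read after challenge with 54-4 at 4 uM final (EC80).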
PINK1 modulator – PINK1 expression modulation; PINK1 immunofluorescence, high-content cytometry, 24 h; AID 624263; Potency, µM (titrated, usually from 76.6 µM), for inactives: top-dose activation (PINK1 increase), most hits filed as activators; 0.2% of 410,000 active; active = well fitted activation curve with a large enough effect; inconclusive = small, poorly fitted or top-dose-only effect; inactive = flat fitted curve, though single readings scatter; cell line not stated here;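 further: potency means the concentration at half of the fitted maximal effect; % of control where 0% means no effect; nearly all actives have a fitted effect of over 65% in size; a mitochondrial uncoupler was the plate control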
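Readout is PINK1 immunofluorescence, quantified alongside mitochondrial, cell and nuclear markers by laser-scanning microplate cytometry. Cells from a stable line were exposed to compound titrations (5 concentrations) for 24 hours, with CCCP controls.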
D2 ag – agonists of human D2 dopamine receptor (beta-arrestin); P14416; DiscoveRx PathHunter D2 beta-arrestin, luminescence, 90 min; 100% = 57 uM dopamine signal; activation, % (no concentration beside the values); 0.084% of 360,000 active; AID 624465; in the data active = activation above about 40%; inconclusive = about 15% to 40%; inactive = below about 15%; further: compound concentration not given in the record; the text of the record calls up to 30% inactive
Target sequence (P14416 whole entry, looked up): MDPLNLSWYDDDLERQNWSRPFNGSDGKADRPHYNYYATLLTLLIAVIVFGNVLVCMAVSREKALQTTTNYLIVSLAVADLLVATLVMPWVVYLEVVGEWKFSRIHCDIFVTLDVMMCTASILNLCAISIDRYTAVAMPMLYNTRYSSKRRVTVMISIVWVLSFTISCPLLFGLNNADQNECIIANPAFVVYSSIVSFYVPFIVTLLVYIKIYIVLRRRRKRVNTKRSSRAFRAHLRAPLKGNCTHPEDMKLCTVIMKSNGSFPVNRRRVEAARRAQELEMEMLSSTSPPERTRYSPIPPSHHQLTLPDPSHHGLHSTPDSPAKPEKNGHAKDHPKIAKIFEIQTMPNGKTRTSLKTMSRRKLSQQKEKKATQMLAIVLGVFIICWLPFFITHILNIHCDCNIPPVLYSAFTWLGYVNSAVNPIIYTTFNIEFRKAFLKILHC
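Agonist mode: compounds alone added to overnight-plated D2 PathHunter cells for 90 min at 37 C, with 57 uM final dopamine (EC100) defining full response. Beta-arrestin recruitment detected by chemiluminescent reagent, read after 1 h at ambient temperature.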
TRPML1 agonist – human mucolipin-1 channel agonism. AID 624414. activation, % (test concentration not listed). Q9GZU1. 0.12% of 410,000 active. TRPML1-expressing cells, Ca2+ dye fluorescence, FDSS; host cell line not named in the record; reference of the full effect not given here; in the data active = activation above about 50%; inconclusive = about 30% to 50%; inactive = below about 30%; further: 0% is about no effect; the text of the record puts the active cut at 80%
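Tet-induced TRPML1-DL cells, 1,500 per well, cultured overnight, were loaded with a no-wash Ca2+ dye for 45–90 min. Calcium fluorescence was recorded on the FDSS for 110 s after compound addition, before the EC80 agonist (4 uM 54-4) was added.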
Six1-Eya2 inh – Six1/Eya2 interaction inhibition | 0.56% of 360,000 active | AID 651725 | activity change, % (concentration not given with the values) | AlphaScreen GST-Six1/His-Eya2 binding, biochemical; stronger effect = lower value; control for the full effect not named in the record; in the data active = activity change below about -65%; inconclusive = about -30% to -65%; inactive = above about -30%; further: on the % scale 0 is the no-effect control and ±100 the full control effect
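Homogeneous AlphaScreen proximity assay pairing GST-Six1 with His-tagged Eya2 (added as 5X mix: 250 nM and 500 nM) in 50 mM Tris pH 8.0, 300 mM NaCl, 1 mM TCEP. Glutathione donor and nickel acceptor beads; 1 h, 37 °C, dark.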
D2 potentiator – human D2 receptor positive allosteric modulation; P14416; DiscoveRx D2 beta-arrestin cells, luminescence, 90 min; 100% = 57 uM dopamine signal; potentiation, % (concentration not given with the values); 0.23% of 360,000 active; active = potentiation of 50% or more; inconclusive = 30% to 50%; inactive = 30% or less;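 further: compound concentration not given in the record; tested on top of an EC20 dose of dopamine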
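D2 cells co-treated with compound plus 50 nM dopamine (EC20) for 90 min at 37 deg C to detect potentiation. Beta-arrestin recruitment was read as enzyme-fragment luminescence after 1 h at ambient temperature. Full response was set by 57 uM dopamine.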
An asterisk follows results filed as active; [ ] = remark or other dose.

`CC(C)CCNC(=S)Nc1ccccc1F` gave TRPML1 inh 19.0, PINK1 modulator 8.7%, D2 ag 1.7, TRPML1 agonist -1.2, Six1-Eya2 inh 3.0 and D2 potentiator -3.5.
For Cc1cc(=O)[nH]c2nnc(SCc3c(F)cccc3Cl)n12 the results were TRPML1 inh -3.5, PINK1 modulator 9.9% and TRPML1 agonist 0.8.
For CCCS(=O)(=O)N1CCc2ccc(NC(=O)C3CCCO3)cc2C1 (stereo not given) the results were TRPML1 inh 10.0, PINK1 modulator 2.2%, D2 ag -2.6, TRPML1 agonist 0.2, Six1-Eya2 inh -2.0 and D2 potentiator 3.6.
`Cc1ccc(OCC(=O)NNC(=O)CCC(=O)Nc2ccc(C)cc2C)cc1` gave TRPML1 inh 8.5, PINK1 modulator 15.6%, D2 ag -2.8, TRPML1 agonist 0.1, Six1-Eya2 inh 11.8 and D2 potentiator -2.2.
For O=C(O)CCCNC(=O)Cc1ccccc1 the results were TRPML1 inh -21.9, PINK1 modulator -0.6%, D2 ag 2.4, TRPML1 agonist -0.1, Six1-Eya2 inh 8.1 and D2 potentiator -2.1.
`COc1ccccc1-c1noc(-c2ccc(NCCc3ccccc3)c([N+](=O)[O-])c2)n1` gave TRPML1 inh -25.8, PINK1 modulator 4.3% and TRPML1 agonist 0.3.
For CCCC1C(=O)Nc2ccccc2N1C(=O)c1ccc(C(C)(C)C)cc1 (stereo not given) the results were TRPML1 inh -13.3, PINK1 modulator 3.2%, D2 ag 9.7, TRPML1 agonist 0.2, Six1-Eya2 inh -8.0 and D2 potentiator -8.1.
COc1cccc(NC(=O)C(NCCC(C)C)c2ccccc2)c1 (stereo not given) was read as TRPML1 inh -7.3, PINK1 modulator 2.2%, D2 ag -5.4, TRPML1 agonist 1.1, Six1-Eya2 inh 0.2 and D2 potentiator -22.9.
`N#Cc1nc(-c2ccc(OCc3ccccc3)cc2)oc1NCc1ccco1` gave TRPML1 inh -3.2, PINK1 modulator 9.0%, D2 ag 2.6, TRPML1 agonist 0.7, Six1-Eya2 inh -3.5 and D2 potentiator -3.8.
`CC1=NNC(=O)C1CC(=O)N/N=C/C=C/c1ccccc1` (stereo not given) gave TRPML1 inh 17.9, PINK1 modulator 2.4%, D2 ag 1.4, TRPML1 agonist 0.1, Six1-Eya2 inh 0.6 and D2 potentiator 0.1.
Screening O=C(Nc1ccc(-c2csc(Nc3ccc(Cl)cc3)n2)cc1)c1cc([N+](=O)[O-])cc(C(F)(F)F)c1 returned TRPML1 inh 16.0, PINK1 modulator 3.4%, D2 ag 2.0, TRPML1 agonist -0.8, Six1-Eya2 inh 2.2 and D2 potentiator 3.0.
`CCOC(=O)CN(Cc1ccccc1)S(=O)(=O)c1ccc(NC(C)=O)cc1` gave TRPML1 inh 11.2, PINK1 modulator 0.9%[38.3 µM], D2 ag 3.2, TRPML1 agonist 0.9, Six1-Eya2 inh 1.8 and D2 potentiator -0.7.

Filtered by structure, the compounds so far with fluorine.
`CC(C)CCNC(=S)Nc1ccccc1F` gave TRPML1 inh 19.0, PINK1 modulator 8.7%, D2 ag 1.7, TRPML1 agonist -1.2, Six1-Eya2 inh 3.0 and D2 potentiator -3.5.
For Cc1cc(=O)[nH]c2nnc(SCc3c(F)cccc3Cl)n12 the results were TRPML1 inh -3.5, PINK1 modulator 9.9% and TRPML1 agonist 0.8.
Screening O=C(Nc1ccc(-c2csc(Nc3ccc(Cl)cc3)n2)cc1)c1cc([N+](=O)[O-])cc(C(F)(F)F)c1 returned TRPML1 inh 16.0, PINK1 modulator 3.4%, D2 ag 2.0, TRPML1 agonist -0.8, Six1-Eya2 inh 2.2 and D2 potentiator 3.0.

The list continues.
Screening CC(C)C[C@H](NC(=O)c1cc2cc(Cl)ccc2n1C)C(=O)N1CCC(C(=O)O)CC1 returned TRPML1 inh 5.6, PINK1 modulator 0.4%, D2 ag 0.5, TRPML1 agonist -0.5, Six1-Eya2 inh 21.8 and D2 potentiator -0.9.
CCCNC(=O)c1cc(C2CCCCN2C(=O)OCC(C)C)on1 (stereo not given) was read as PINK1 modulator 0.2%, D2 ag -5.9, TRPML1 agonist -0.7, Six1-Eya2 inh 12.3 and D2 potentiator -6.4.
For NC(=O)C1CCN(c2oc(-c3ccccc3F)nc2S(=O)(=O)c2ccc(Cl)cc2)CC1 the results were TRPML1 inh -3.7, PINK1 modulator -2.1%, D2 ag -1.1, TRPML1 agonist 0.6, Six1-Eya2 inh 25.9 and D2 potentiator -2.8.
`CCOC(=O)Cn1c(=O)c2c(nc(N3CCCCC3)n2C)n(C)c1=O` gave TRPML1 inh -7.8, PINK1 modulator 3.7%, D2 ag -1.5, TRPML1 agonist -0.8, Six1-Eya2 inh -1.7 and D2 potentiator -5.8.
For O=C(CCc1ccccc1)NC(=S)Nc1cc(C(F)(F)F)ccc1N1CCOCC1 the results were TRPML1 inh 63.9, PINK1 modulator 7.1%[38.3 µM], D2 ag -1.6, TRPML1 agonist 0.5, Six1-Eya2 inh -8.0 and D2 potentiator -3.9.
O=C(Cc1cccc(C(F)(F)F)c1)OCC(=O)N1CCN(S(=O)(=O)c2ccc(Cl)cc2)CC1 was read as TRPML1 inh 3.9, PINK1 modulator 2.1%, D2 ag 1.3, TRPML1 agonist 0.2, Six1-Eya2 inh 1.6 and D2 potentiator -4.8.
`CCc1c(C)nc2c(C)cccc2c1SCCC#N` gave TRPML1 inh 4.7, PINK1 modulator 8.2%, D2 ag -2.9, TRPML1 agonist -0.5, Six1-Eya2 inh 4.9 and D2 potentiator -6.7.
Screening COc1cccc2c1NC(C(=O)O)C1CC=CC21 (stereo not given) returned TRPML1 inh 7.7, PINK1 modulator -1.2%, D2 ag -2.2, TRPML1 agonist -0.6, Six1-Eya2 inh inconclusive and D2 potentiator 5.5.
For CCOC(=O)CC1(C)NC(=O)c2c(C)sc(C(=O)OCC)c2N1 (stereo not given) the results were TRPML1 inh -2.4, PINK1 modulator 1.4%, D2 ag -1.8, TRPML1 agonist -2.0, Six1-Eya2 inh 3.8 and D2 potentiator -3.5.
Cc1ccc2oc(=O)c3cnn(CC(=O)Nc4ccc(Br)cc4C)c3c2c1 was read as TRPML1 inh -6.3, PINK1 modulator 0.4% and TRPML1 agonist -0.7.
Screening CCCCN(CCCC)C(=O)C1CC=CCC1C(=O)O (stereo not given) returned TRPML1 inh -2.8, PINK1 modulator -1.4%, D2 ag -1.8, TRPML1 agonist -0.4, Six1-Eya2 inh 4.2 and D2 potentiator -9.2.
O=C(c1cccc(S(=O)(=O)Nc2ccccc2Cl)c1)N1CCC1 was read as TRPML1 inh -3.1, PINK1 modulator 1.1%, D2 ag -6.0, TRPML1 agonist 0.0, Six1-Eya2 inh 6.3 and D2 potentiator -13.0.

2 entries drawn at random from the list so far, as already listed:
O=C(c1cccc(S(=O)(=O)Nc2ccccc2Cl)c1)N1CCC1 was read as TRPML1 inh -3.1, PINK1 modulator 1.1%, D2 ag -6.0, TRPML1 agonist 0.0, Six1-Eya2 inh 6.3 and D2 potentiator -13.0.
CCCNC(=O)c1cc(C2CCCCN2C(=O)OCC(C)C)on1 (stereo not given) was read as PINK1 modulator 0.2%, D2 ag -5.9, TRPML1 agonist -0.7, Six1-Eya2 inh 12.3 and D2 potentiator -6.4.

Remaining list, next part
O[C@@H]1CN(CC2CCCCC2)[C@@H](c2ccc(Cl)cc2)C[C@H]1n1cc(-c2ccc(F)cc2)nn1 was read as TRPML1 inh 11.2, PINK1 modulator 3.7%, D2 ag -8.5, TRPML1 agonist -0.6, Six1-Eya2 inh 2.1 and D2 potentiator 3.4.
`Nn1c(SCC(=O)Nc2ccccc2C(F)(F)F)nncc1=O` gave TRPML1 inh -7.4, PINK1 modulator -0.4%, D2 ag 2.5, TRPML1 agonist -0.2, Six1-Eya2 inh -4.6 and D2 potentiator 2.4.
For N#Cc1c(NC(=O)CSc2nc(N)cc(=O)[nH]2)sc2c1CCCCCC2 the results were TRPML1 inh 1.7, D2 ag 3.9, TRPML1 agonist 0.1, Six1-Eya2 inh 1.8 and D2 potentiator -11.5.
CC(OC(=O)CCC(=O)c1cccs1)C(=O)NC1CCCCC1C (stereo not given) was read as TRPML1 inh 1.1, PINK1 modulator 1.0%, D2 ag -0.7, TRPML1 agonist -0.6, Six1-Eya2 inh -0.3 and D2 potentiator -2.1.
O=c1c2ccccc2oc2c1oc1ccccc12 was read as TRPML1 inh 10.4, PINK1 modulator -1.0%, D2 ag 2.1, TRPML1 agonist -0.4 and Six1-Eya2 inh -16.7.
COc1cc(/C=C/C(=O)OCC(=O)NCc2ccco2)cc(OC)c1OC was read as TRPML1 inh 7.0, PINK1 modulator 2.8%, D2 ag -1.9, TRPML1 agonist -0.4, Six1-Eya2 inh -4.6 and D2 potentiator -2.5.
For COCCNC(=O)C(c1ccco1)N(C(=O)Cn1nnc2ccccc21)c1ccc(C)cc1C (stereo not given) the results were TRPML1 inh -3.0, PINK1 modulator -1.4%, D2 ag 1.0, TRPML1 agonist -0.7, Six1-Eya2 inh 1.0 and D2 potentiator -8.3.
`COC(=O)c1c(NC(=O)/C(C#N)=C/c2ccccc2)sc2c1CCC2` gave TRPML1 inh 7.6, PINK1 modulator 1.8% and TRPML1 agonist -0.5.
For Cc1ccc(S(=O)(=O)NC(=O)NC(C)(C)C)cc1 the results were TRPML1 inh -1.0, PINK1 modulator -1.0%, D2 ag -1.1, TRPML1 agonist 0.3, Six1-Eya2 inh 8.6 and D2 potentiator -0.4.
`O=C(c1ccc(Cl)c(S(=O)(=O)N2CCOCC2)c1)N(Cc1nnc(-c2ccccc2Cl)o1)C1CC1` gave TRPML1 inh -2.0, PINK1 modulator 1.5%, D2 ag -3.4, TRPML1 agonist 0.5, Six1-Eya2 inh -4.7 and D2 potentiator -6.5.
COC(=O)c1ccccc1NC(=O)Nc1cc(C)cc(C)n1 was read as TRPML1 inh 3.4, PINK1 modulator inconclusive, D2 ag 1.6, TRPML1 agonist 0.5, Six1-Eya2 inh 4.8 and D2 potentiator 2.5.
CN(C)CCSc1nc2cc(S(=O)(=O)N3CCCCC3)ccc2o1 was read as TRPML1 inh -1.1, PINK1 modulator 0.9%, D2 ag -1.9, TRPML1 agonist 0.4, Six1-Eya2 inh -2.4 and D2 potentiator -8.5.
Screening O=C(CCCCCn1c(=O)[nH]c2ccccc2c1=O)N1CCN(Cc2ccc3c(c2)OCO3)CC1 returned TRPML1 inh 17.5, PINK1 modulator -2.2%, D2 ag 3.3, TRPML1 agonist 0.7, Six1-Eya2 inh -7.0 and D2 potentiator 2.4.
Screening CCc1cccc2c(C(=O)COC(=O)c3ccc([N+](=O)[O-])s3)c[nH]c12 returned TRPML1 inh -0.2, PINK1 modulator inconclusive, D2 ag 4.0, TRPML1 agonist 1.0, Six1-Eya2 inh -22.7 and D2 potentiator 2.1.
For CCC(C)N(C(=O)COC(=O)c1cc([N+](=O)[O-])ccc1N1CCOCC1)C1CCS(=O)(=O)C1 (stereo not given) the results were TRPML1 inh 6.3, PINK1 modulator -6.0%, D2 ag -4.4, TRPML1 agonist 0.4, Six1-Eya2 inh -1.4 and D2 potentiator -5.0.
